miR-21 FLuc – raises the signal of a miR-21 reporter | HeLa miR-21 FLuc reporter, luciferase, 48 h | Potency, µM (doses to about 38.3 µM), without a hit: at the top dose reporter change, positive = more light | 340,000 tested, under 10 active; active = well fitted rising curve with a large enough effect; inconclusive = small, poorly fitted or top-dose-only effect; inactive = no such curve, though single readings can be large or run the other way;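 also: % of control where 0% means no effect; miR-21 action dims this reporter so a rising signal means less miR-21 action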
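HeLa miR-21-FLuc reporter line, endogenous miR-21; 2000 cells/well in DMEM/10% FBS; compound titration up to ~40uM final, 48 h, 37 degree Celsius; luciferase detection reagent, 15 min lysis, CCD luminescence.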
Rango dissoc inh – prevents RanGTP from dissociating the Rango-importin beta complex; O95149+P62826; Biochemical FRET Rango-importin beta, RanGTP-induced dissociation; Potency, µM (titrated, usually from 46.1 µM), for inactives: at the top dose activity change, negative = inhibition; hit rate 0.071% among 340,000; AID 540253; active means falling FRET ratio curve, often poorly fitted, with flat reads before Ran was added; inconclusive means other falling curves, or compound fluorescence or quenching; inactive means flat or rising ratio curve;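 also: potency is read from the fitted curve at half-maximal effect; % of control where 0% means no effect; nearly all actives have a fitted effect of over 45% in size; -100% = wells without RanGTP and RCC1; the record marks most hits as doubtful in a second field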
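Rango (0.1 uM)–importin beta (0.25 uM) complex; RanGTP-RCC1 trigger; 45 min RT; CFP/YFP FRET read.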
GLA inh pH 4.5 – inhibitors of human alpha-galactosidase A at pH 4.5. 230,000 tested, under 10 active. purified enzyme, 4-MU-alpha-Gal fluorescence, pH 4.5. activity change, negative = inhibition, % at 105 µM. AID 1467. P06280; inconclusive = small, poorly fitted or top-dose-only inhibition, or a rising curve; inactive = flat fitted curve, though single readings scatter; no compound was filed as active;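 also: 0% = full activity with enzyme and -100% = basal without enzyme; dose as in the result columns while the protocol names 77 µM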
Target sequence (P06280 whole entry, looked up): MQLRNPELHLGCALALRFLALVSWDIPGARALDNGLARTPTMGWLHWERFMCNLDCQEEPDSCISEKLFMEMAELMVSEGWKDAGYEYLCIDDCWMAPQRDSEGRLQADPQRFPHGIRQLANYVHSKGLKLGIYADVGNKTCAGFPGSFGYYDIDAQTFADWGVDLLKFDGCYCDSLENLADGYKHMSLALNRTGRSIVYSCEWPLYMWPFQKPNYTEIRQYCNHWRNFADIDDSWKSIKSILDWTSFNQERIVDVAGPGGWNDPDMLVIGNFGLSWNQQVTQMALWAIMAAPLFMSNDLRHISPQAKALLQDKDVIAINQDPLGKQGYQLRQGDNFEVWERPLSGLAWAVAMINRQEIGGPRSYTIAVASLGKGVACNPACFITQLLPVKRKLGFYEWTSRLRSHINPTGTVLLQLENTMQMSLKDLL
Rango complex inh – inhibitors of Rango-importin beta complex formation; Q14974; Rango CFP/YFP FRET sensor + importin beta, 45 min; Potency, µM (titrated, usually from 92.2 µM), without a hit: at the highest dose inhibition of complex formation; hit rate 0.031% among 340,000; AID 540263; active = rising FRET ratio curve, often small or poorly fitted; inconclusive = mostly compound fluorescence or quenching in the first reads; inactive = flat curves in all reads;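 also: potency is read from the fitted curve at half-maximal effect; 0% = DMSO wells and 100% = buffer wells lacking importin beta; nearly all actives have a fitted effect of over 15% in size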
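FRET biosensor (snurportin 1 IBB flanked by EYFP and cerulean), 50 nM, with compound 5 min, then 0.125 microM importin beta in PBS, 1 mM DTT, 0.02% Tween-20, 0.1% BSA. CFP/YFP ratio read after 45 min at room temperature; pre-read flags interference.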
An asterisk follows results filed as active; ? = inconclusive; . = no result given. Some of the compounds tested; count on the stated rates, not on these rows.

no.	Molecule	GLA inh pH 4.5	Rango dissoc inh	Rango complex inh	miR-21 FLuc
1	CCOc1ccccc1NC(=O)CCCc1nc2ccccc2c(=O)[nH]1	2.4	7.1%	5.2%	9.1%
2	O=C(COC(=O)c1cc(=O)[nH]c2ccccc12)NC(=O)c1ccccc1	.	19.7%	6.3%	.
3	CC(=O)Nc1ccc(S(=O)(=O)Nc2ccc(C(=O)NCC(=O)O)cc2)cc1	-5.7	-4.3%	0.9%	-0.2%
4	CC(C)CNC(=O)COc1ncnc2sccc12	2.2	35.4%	1.0%	-2.6%
5	O=C(COC(=O)/C=C/c1cccc(Br)c1)Nc1cccc(S(=O)(=O)NC2=NCCC2)c1	.	-5.1%	-0.3%	.
6	COC(=O)c1ccc(COc2ccc(F)cc2)o1	.	-9.8%	1.5%	-15.5%
7	CC/C(=C(/c1ccccc1)c1ccc(OCC[N+](C)(C)C)cc1)c1ccccc1	.	20.9%	4.3%	.
8	CC(=O)Nc1cc2nc(C)n(Cc3ccccc3[N+](=O)[O-])c2nc1C	.	-0.7%	-0.7%	2.5%
9	CCn1c(C)nc2cc(C(=O)N/N=C/c3ccc(O)c(O)c3O)ccc21	-24.9	4.3%	?	-10.1%
10	O=C(NCC(=O)N(c1ccc2c(c1)OCCO2)C(C(=O)NC1CCCC1)c1ccco1)c1ccco1 (stereo not given)	-2.6	13.1%	-3.0%	-1.8%
11	COc1ccccc1N1CCN(C2CCCN(C(=O)c3ccsc3)C2)CC1 (stereo not given)	.	14.6%	-1.5%	.
12	CCCC(C(=O)Nc1cc(S(=O)(=O)N2CCOCC2)ccc1OC)c1ccccc1 (stereo not given)	.	-9.8%	-1.4%	-4.5%
13	CCN(C(=O)CN1CCCCC1C)c1c(N)n(Cc2ccccc2)c(=O)[nH]c1=O (stereo not given)	.	-3.9%	-7.2%	.
14	COc1ccc(-c2noc(C3CCCN(C(=O)c4ccc(F)cc4)C3)n2)cc1 (stereo not given)	.	5.3%	-3.5%	3.3%
15	CN(c1ccccc1)S(=O)(=O)c1ccc(Cl)c(C(=O)Nc2ccncc2)c1	.	-3.3%	-1.2%	.
16	COc1ccc2c(c1)OC(O)(C(F)(F)C(F)F)CC2=O (stereo not given)	-1.1	-0.1%	1.7%	6.9%
17	CCOC(=O)CNC(=O)c1cn(C)c(=O)c2cc(OC)c(OC)cc12	-3.9	-16.0%	-2.0%	-0.7%
18	Cc1ccccc1NC(=S)NC(=O)/C=C/c1ccco1	.	27.2%	2.7%	-4.2%
19	Cc1cccc(N/C(=N/S(=O)(=O)c2ccccc2)c2ccccc2)n1	.	-12.1%	-1.6%	-21.0%
20	Cc1ccc(NC(=O)CSc2cn[nH]n2)cc1	.	38.4%	6.6%	-1.8%
21	Cc1ccc(CSc2nnc3c(n2)OC2(Nc4ccccc4-3)C(=O)Nc3ccc(F)cc32)cc1 (stereo not given)	-8.3	0.9%	10.9%	-4.5%
22	COC(=O)c1ccc(NC(=O)CSc2nnc(-c3ccncc3)n2N)cc1	-0.3	0.0%	-1.5%	2.6%
23	Cn1c(=O)c2ncn(CC(=O)NCCOc3ccccc3)c2n(C)c1=O	12.5	0.7%	5.8%	-10.9%
24	Cc1nn2c(NCCN(C)C)c3c(nc2c1-c1ccccc1)CCC3	2.5	9.0%	-1.3%	-7.5%
25	CC(C)CC(NC(=O)/C(=C/c1ccco1)NC(=O)c1ccc(Br)o1)C(=O)O (stereo not given)	.	-15.7%	?	0.0%
26	CC1CCCCN1C(=O)c1cc(F)c(F)cc1Cl (stereo not given)	-1.0	0.9%	-0.4%	0.6%
27	CC1=C(C(=O)OC(C)(C)C)C(c2cccs2)NC(=O)N1 (stereo not given)	4.0	-0.2%	1.1%	-10.9%
28	Cc1ccc(OC(C)C(=O)Nc2ccc(Cl)cn2)c([N+](=O)[O-])n1 (stereo not given)	.	1.6%	-4.0%	.
29	CCCc1cc(=O)[nH]c(SCC(=O)N(C)Cc2ccccc2)n1	-0.9	20.5%	-0.9%	-6.5%
30	CN(C)S(=O)(=O)Oc1ccccc1C(=O)Nc1ccc(F)cc1	6.8	-3.7%	?	-1.7%
31	O=C(CNS(=O)(=O)c1ccc(Cl)c(C(F)(F)F)c1)NC1CCCCC1	.	18.8%	0.6%	.
32	COc1ccc(-c2ccc3c(c2)S(=O)(=O)c2cccc(C(=O)NCc4cccc(OC(F)(F)F)c4)c2C3=O)cc1OC	.	-5.8%	13.3%	.
33	COc1ccc(OC)c(S(=O)(=O)NCC(c2ccc3c(c2)OCO3)N2CCOCC2)c1 (stereo not given)	.	27.0%	-0.6%	.
34	O=C(CSc1nnc2c(n1)[nH]c1ccc(F)cc12)Nc1ccccc1F	.	1.4%	-3.2%	-9.8%
35	O=C1NCC(COc2cccc3ccccc23)O1 (stereo not given)	-0.9	0.0%	2.4%	-4.8%
36	CCn1c(C)nnc1SCC(=O)Nc1ccccc1Cl	.	21.8%	-0.3%	7.9%
37	O=C(/C=C/c1ccccc1)Nc1cccc(C(=O)NCCCc2ccccc2)c1	.	-6.4%	0.1%	.
38	COc1ccc(CC(=O)OCC(=O)NC(=O)NC(C)C)cc1	1.5	1.8%	0.5%	3.3%
39	CCn1c(COc2ccccc2C)nnc1SCC(=O)Nc1ccc2c(c1)OCCO2	3.5	-5.4%	0.4%	1.4%
40	O=C(Cn1cc(COc2c(Br)cc(F)cc2Br)nn1)c1ccc(O)cc1	.	24.6%	-1.4%	.
41	Cc1cc2ccccc2nc1SCC(=O)Nc1nc(-c2ccccc2)cs1	3.6	52.7%	-3.6%	-6.6%
42	CCOc1ccc(S(=O)(=O)NCCC(=O)NCC2COc3ccccc3O2)cc1 (stereo not given)	.	2.9%	0.6%	.
43	O=C(CC(SCCO)c1ccc2c(c1)OCO2)c1ccco1 (stereo not given)	-14.6	1.9%	-7.0%	-15.2%
44	O=C(Nc1ccccc1)C1=C[C@@H](c2coc3ccccc3c2=O)C[C@@H](OCCCCO)O1	2.4	-9.4%	0.7%	-4.3%
45	CCN(c1ccccc1)S(=O)(=O)c1ccc(OC)c(NC(=O)c2c(C)noc2C)c1	.	-14.6%	-2.3%	.
46	Cc1ccc(Cl)cc1N1CCN(S(=O)(=O)c2ccc3[nH]c(=O)ccc3c2)CC1	.	-0.5%	-1.5%	-2.2%
47	CC1Cc2ccccc2N1S(=O)(=O)c1cccc(C(=O)NCC(c2ccco2)N2CCCC2)c1 (stereo not given)	.	5.4%	2.5%	.
48	CCCn1c(SCC(=O)NC2CCC(C)CC2)n[nH]c1=O (stereo not given)	.	27.3%	-1.1%	.
49	O=S(=O)(c1ccc(N2CCOCC2)nc1)N1CCOCC1	3.5	1.6%	8.1%	-2.3%
50	CCc1ccc(N(C(=O)CNC(=O)c2ccco2)C(C(=O)NC2CCCC2)c2ccncc2)cc1 (stereo not given)	.	14.3%	1.5%	-10.6%

(list continues)
no.	Molecule	GLA inh pH 4.5	Rango dissoc inh	Rango complex inh	miR-21 FLuc
51	COc1ccc(/C=C(/NC(=O)c2ccccc2Cl)C(=O)O)cc1	-22.9	11.7%	0.0%	0.0%
52	Cc1ccc(C)c(CSc2nnc(CCN)o2)c1	2.2	3.8%	0.5%	-5.1%
53	Cc1ccc(C(=O)C(C)OC(=O)c2nc(Cl)ccc2Cl)cc1 (stereo not given)	.	-11.5%	-0.1%	-8.7%
54	c1ccc(COc2ccc(CN3CCN(c4ccccn4)CC3)cc2)cc1	0.0	-8.4%	2.2%	-60.3%
55	CC1CCc2c(sc(NC(=O)C3=COCCO3)c2C(N)=O)C1 (stereo not given)	.	-0.1%	?	.
56	CS(=O)(=O)c1[nH]nc(-c2ccccc2)c1C#N	-1.1	-9.6%	-1.0%	4.1%
57	Cc1cccc(CC(=O)NC2CCS(=O)(=O)C2)c1 (stereo not given)	.	13.8%	-1.0%	.
58	O=C(COC(=O)c1ccccc1F)NC1CC1	.	?	-3.5%	.
59	CC1CCC2(CC1)NC(=O)N(CC(=O)N1CCOCC1)C2=O (stereo not given)	.	2.9%	5.7%	.
60	CCC(=O)Nc1nnc(Cc2ccccc2)s1	-8.7	10.0%	-0.1%	-18.2%
61	COc1ccc(OC)c(CCNC(=O)c2cccc(NC(=O)C3=C(C)OCCS3)c2)c1	.	-2.2%	3.1%	8.0%
62	O=C(NCCCN1CCOCC1)c1cc(-c2ccc3c(c2)OCO3)nc2ccccc12	-3.0	0.1%	-0.6%	-0.2%
63	COc1ccccc1NS(=O)(=O)c1cc(C(=O)NCc2ccco2)ccc1C	2.5	-2.4%	-2.6%	-3.9%
64	COc1ccc(Cc2nnc(NC(=O)c3cccs3)s2)cc1OC	2.5	0.1%	2.0%	-2.2%
65	CCc1ccc(/C=N/NC(=O)c2ccccn2)cc1	3.4	-3.1%	1.8%	6.7%
66	CCOC(=O)C1CCN(C(=O)CN(c2ccc(OC)cc2)S(=O)(=O)c2c(C)nn(C)c2C)CC1	-11.1	-3.2%	1.6%	0.2%
67	CCCCC(=O)Nc1cc(OC)c(NC(=O)C2CCCCC2)cc1OC	1.7	-13.8%	5.1%	0.6%
68	O=C1C(=O)N(CCS(=O)(=O)c2ccccc2)c2ccc(Cl)cc21	.	5.3%	-0.9%	18.7%
69	C=CCn1c(N)c(C(=O)Nc2ccccc2)c2nc3ccccc3nc21	2.0	?	?	-3.5%
70	COc1ccc(CC(=O)O/N=C(\N)c2ccc(C)cc2)cc1	0.3	-3.5%	0.9%	-55.2%
71	Cc1cc(N)ccc1N=Nc1c(C)n(C)n(-c2ccccc2)c1=O	-4.4	-6.3%	3.8%	-60.4%
72	COc1ccc(C(=O)NNC2=NC(C)(C)Cc3cc(C)c(C)cc32)cc1	5.8	-6.8%	-4.8%	1.3%
73	COC(=O)c1c(NC(=O)c2ccco2)sc2c1CCN(C(C)=O)C2	.	3.8%	3.5%	0.0%
74	O=C(NCc1ccco1)C(=O)NCC1OCCCN1S(=O)(=O)c1ccc(Cl)cc1 (stereo not given)	4.1	8.2%	-1.2%	-4.6%
75	Cc1[nH][nH]c(=O)c1N=Nc1ccc(Cl)cc1	-4.8	7.7%	0.2%	-10.0%
76	COc1ccc(CCNC(=O)c2c(N)no[n+]2[O-])cc1OC	0.8	-3.0%	-3.8%	-1.4%
77	Cc1ccc2occ(/C=N/O)c(=O)c2c1	0.9	-19.9%	0.3%	-13.6%
78	Cc1c(NC(=O)COC(=O)C23CC4CC(CC(Br)(C4)C2)C3)c(=O)n(-c2ccccc2)n1C	6.1	-1.0%	-0.2%	1.4%
79	Cc1ccc(Nc2cc(C)nc3c(C)ccc([N+](=O)[O-])c23)cc1	-2.0	-10.7%	-0.5%	-2.8%
80	O=C(c1ccccc1F)N(Cc1cccnc1)Cc1cc2cc3c(cc2[nH]c1=O)OCCO3	?	11.0%	?	-5.1%
81	Cc1cc(C(=O)Nc2cccc(C(=O)O)c2)c(C)o1	2.6	-11.5%	-0.1%	-43.1%
82	CSC1=NCCN1S(=O)(=O)c1ccc2ccccc2c1	-0.6	11.8%	2.5%	-0.6%
83	O=C(C1CCC1)N1CCC(c2nc3c(nnn3Cc3c(F)cccc3Cl)c(=O)[nH]2)CC1	7.1	13.9%	2.7%	-7.0%
84	CC(=O)c1cccc(OCCCOc2cccc3cccnc23)c1	.	6.9%	0.2%	-29.4%
85	CC(C)CN(CC(C)C)C(=O)COn1nnc2ccc(S(=O)(=O)N3CCOCC3)cc21	.	9.4%	1.4%	.
86	COc1cccc(CNC(=O)CSc2ccc(-c3cccs3)nn2)c1	1.4	-2.7%	-0.1%	3.5%
87	COc1ccccc1CC(=O)N1CCN(S(=O)(=O)c2ccccc2)CC1	.	-13.6%	-3.2%	-1.4%
88	Cc1nc2[nH]c(=S)[nH]c2c(=O)[nH]1	.	34.5%	-5.4%	.
89	O=[N+]([O-])c1ccccc1/C=C/C=N/n1c(-c2ccccc2)n[nH]c1=S	-3.0	9.4%	?	-14.1%
90	CC(C)(C)NC(=O)Cn1cc(C#N)c2cc(Br)ccc21	-1.2	20.3%	0.4%	-3.0%
91	CC1(C)CC(=O)C2=C(C1)N=c1s/c(=C/c3ccc(F)c(F)c3)c(=O)n1C2c1ccc(F)cc1 (stereo not given)	-3.5	-22.1%	2.6%	-5.6%
92	CCOC(=O)c1c(S(=O)(=O)N2CCc3ccccc32)c(C)n(C)c1C	.	-1.0%	4.3%	0.8%
